Compound activity deposited in PubChem BioAssay by Fisher Drug Discovery Resource Center.
NPYLR7 agonist: agonists of mosquito NPYLR7 receptor, primary screen, cell-based, Aedes aegypti, calcium fluorescence, mosquito biting behavior | HEK293T NPYLR7/Galpha15, GCaMP6s calcium fluorescence | activation, % at 10 µM | 270,000 compounds, 0.15% hits | AID 1259423, 2018; in the data active = activation above about 40%;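 also: 0% = vehicle and 100% = reference agonist at the receptor; some compounds past the cut are filed as inactive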
NPYLR7 agonist max-min: second read-out of NPYLR7 agonist, no call of its own (marks repeat the call); activation, %; measured here: Max-Min RFU normalised activation; some inactives read as strong as hits;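 span of the calcium signal over five minutes; 0% = vehicle and 100% = native peptide agonist; compound fluorescence can raise it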
* = called active by the depositor; & = joins results of further samples. The list is partial; rates above refer to the full screens.

SMILES	NPYLR7 agonist	NPYLR7 agonist max-min
Cc1ncc(CN(C)CC2CCCN(CCc3ccccc3F)C2)s1 (stereo not drawn)	17	7
COc1cc(C(=O)Nc2ccc3c(c2)N(C(=O)C2CC2)CCC3)cc(OC)c1OC	-5	-5
CNc1nc2cnc(Nc3cccc(F)c3)cc2n1CC1CC1	18	10
Cc1nc2c(c(=O)n1C)CCN(Cc1cn(C(C)C(=O)O)c3ccccc13)CC2 (stereo not drawn)	-5	-7
Cc1cccc(C)c1Cn1c(C)c(C(=O)NCc2cccc3ccccc23)sc1=O	8	3
COc1ccc(-n2ccnc2CN2CCN(Cc3ccc(OC)c(C)c3)C(CCO)C2)cc1 (stereo not drawn)	12&10	4&9
COc1ccc(OC)c(C(=O)C=Cc2cc(Br)ccc2F)c1	1	2
Nc1ccc2c(c1)OCCCO2	5	1
O=C(Cn1ncc(N2CCOCC2)cc1=O)Nc1cccc2c1CCC2	12	12
Cc1ncc(CN2CCC(c3nn(C)c(=O)n3-c3ccccc3)CC2)s1	4	-1
CCCCCc1nc2c(OCc3ccccc3)cccn2c1Nc1c(C)cccc1C	23	32
CCCNCc1cc(OCC)c(OCCC)cc1Br	11	10
CN(C)CCNC(=O)c1cc2n(n1)CCCN(c1cnc3ccccc3n1)C2	2	-1
NC(c1ccccc1F)C1CCCC1 (stereo not drawn)	21	11
O=C(C(c1ccccc1)c1ccccc1)N1CCc2ccccc2C1c1ccc(F)cc1 (stereo not drawn)	18	8
CCOc1ncccc1-c1nccc(OC)n1	3	0
CC(=O)N(/C=C1/N=C(c2ccccc2)OC1=O)c1cccc(Cl)c1	-5	-8
Cc1ccc(CN(C)C(=O)C2CCN(S(=O)(=O)c3cc(Cl)ccc3Cl)CC2)o1	2	1
Cc1ccc(S(=O)(=O)N2CCc3cccc4c3C2CC(=O)N4)cc1 (stereo not drawn)	13	11
Cc1ccc(Cc2nsc(N3CCN(C(=O)CCc4ccccc4)C(C)C3)n2)cc1 (stereo not drawn)	-2	9
O=C(CCn1cnc2ccccc21)N(Cc1ccccn1)CC1CCCO1 (stereo not drawn)	0	-6
O=C(Nc1ccc(I)cc1)N[C@@H](Cc1ccccc1)C(=O)N1CCC(C(=O)N2CCCCC2)CC1	5	11
Cc1nn(-c2ccccc2)c(C)c1CN(C)C(=O)NC1CCCCC1	5	2
O=C(NCc1ccc(F)cc1)c1cc(=O)c(OCc2ccccc2)c[nH]1	16	18
CCN(CC)Cc1cnc2c(C(=O)N3CCS(=O)(=O)CC3)cnn2c1	-4	-5
CCOC(=O)c1nn(CCc2scnc2C)c2c1CN(Cc1coc3ccccc3c1=O)CC2	21	6
CCSc1nnc(NC(=O)CSc2nnc(CNC(=O)COc3ccc(Cl)cc3)n2-c2ccc(F)cc2)s1	-7	-5
O=C(NCCCOc1ccccc1)c1c(O)cccc1O	-4	-8
Fc1ccc(-c2csc(CN3CCCC(N4CCCC4)C3)n2)cc1 (stereo not drawn)	4	-1
CN(c1ccccc1)N1CC(C(=O)NCCc2ccc(F)cc2)CC1=O (stereo not drawn)	-1	-5
O=C(c1cccc(F)c1)N1CCN(C(C(=O)N2CCCC2)C2CCCC2)CC1 (stereo not drawn)	-8	-6
CCCS(=O)(=O)c1ccccc1C(=O)N1CCN(C)CC1C (stereo not drawn)	7	2
COc1ccc(CCC(=O)Nc2cccc(C(N)=O)c2C)c(OC)c1OC	-2	-5
CCOC(=O)C(C)Sc1nc2c(cnn2-c2ccccc2)c(=O)[nH]1 (stereo not drawn)	-1	-8
COc1cc(OC)cc(C(=O)Nc2c(-c3cc(C)cc(C)c3)nc3ccccn23)c1	-4	1
O=c1oc2ccccc2cc1-c1csc(N/N=C\c2ccc(Cl)cc2)n1	-7	-16
O=C(NC1CC(=O)N(c2ccc(Oc3ccccc3)cc2)C1)C1CCOCC1 (stereo not drawn)	2	5
O=C(NCc1cccc(Oc2ccccc2)c1)C(=O)c1c[nH]c2ccccc12	-2	-3
COc1cccc(CC(=O)N2CCC(n3cnc4ccc(F)cc43)CC2)c1	-4	-6
CC(=O)c1ccc(N2CCN(C(=O)c3sc(-c4ccccc4)nc3C)CC2)c(F)c1	1	-3
COc1ccc(-c2nc3ccc(Cl)cn3c2NC2CCCCC2)cc1OC	8	12
O=C(Cc1ccsc1)N(CC1CCN(C2Cc3ccccc3C2)CC1)CC1CCCO1 (stereo not drawn)	20	15
CCS(=O)(=O)C(C)C(=O)N1CCN(C(=O)c2ccccc2)CC1 (stereo not drawn)	4	16
O=C(Nc1nnc(C2CCCCC2)s1)C(F)(F)F	-10	-17
Cc1cc(Cl)cc(C)c1OCC(=O)NC(C)c1ccc(-n2ccnc2)cc1 (stereo not drawn)	-2	-3
O=C(c1cccnc1-c1cccc2c1CCNC2)N1C[C@H]2CC[C@@H]1C2	32	18
COC(=O)C1CCCCN1C(=O)c1ccc(C2CCCCC2)cc1 (stereo not drawn)	0	2
CCn1c(SC(C)C(=O)OC)nc2sc3c(c2c1=O)CCCC3 (stereo not drawn)	2	4
Cc1cc(C)c(S(=O)(=O)N2CCN(c3nccc(-c4ccc(-n5ccnc5)cc4)n3)CC2)c(C)c1	2	-2
O=C(CN1Cc2ccccc2OC(c2ccccc2F)C1)NCC1OCCc2ccccc21 (stereo not drawn)	17	3
CCc1ccc(C(=O)N2CCN(S(=O)(=O)N3CCN(C)CC3)CC2)s1	9	6
Cc1ccc2c(c1)OC(C)CN2CCNS(C)(=O)=O (stereo not drawn)	7	1
CNC(=O)c1cnc(N2CCN(Cc3ccccc3)C2=O)s1	-2	-4
CC(C)Cn1c(SCCCC#N)nc2ccc(Cl)cc2c1=O	12	11
CC(C)(C)C(NC(=O)c1cc(C2CC2)on1)c1ccc(F)cc1 (stereo not drawn)	0	1
O=C(C=c1[nH]c(=O)c(=Cc2ccc3c(c2)OCO3)s1)c1ccc(Cl)cc1	-1	-4
COc1ccccc1OC(C)(C)C(=O)Nc1cnc2n1CCCC2	27	17
O=C(COC(=O)c1cccc(Cl)c1)Nc1ncccn1	-6	-7
COc1cccc(C(CNS(=O)(=O)c2ccccc2Br)N(C)C)c1 (stereo not drawn)	-3	-3
Cc1nn(C)cc1CN1CCCC(CNC(=O)c2ccc(-c3ccccc3)cc2)C1 (stereo not drawn)	6	7

Single records (already shown). Order of screens: NPYLR7 agonist | NPYLR7 agonist max-min
CC(C)(C)C(NC(=O)c1cc(C2CC2)on1)c1ccc(F)cc1 (stereo not drawn) in the list: 0 | 1
COc1ccccc1OC(C)(C)C(=O)Nc1cnc2n1CCCC2 in the list: 27 | 17

(list continues)
SMILES	NPYLR7 agonist	NPYLR7 agonist max-min
O=C1NC(=S)N/C1=C/c1cccn1-c1ccc([N+](=O)[O-])cc1	-4	-4
O=C(NCC1CCCN(Cc2ccccn2)C1)c1nc2ccccc2[nH]1 (stereo not drawn)	-5	-6
OC(CNC1CCC2(CCNCC2)CC1)c1cccnc1 (stereo not drawn)	4	1
COc1cccc(C(=O)N(CC(=O)N(Cc2ccccc2)Cc2cccn2Cc2ccc(F)cc2)C(C)C)c1	-8	3
Cc1ccc2nc3c(cc(C(=O)N4COCC4(C)C)n3Cc3ccccc3)c(=O)n2c1	0	0
Cc1cc(C(=O)O)c2cc(Cl)ccc2n1	-4	-1
Cc1ccccc1S(=O)(=O)N1CCC(Cc2ccc(C(F)(F)F)cc2)CC1	1	-8
COc1ccc(-n2nc(-c3ccc(C)o3)cc2C(=O)N2CCN(C/C=C/c3ccccc3)CC2)cc1	10	7
CC(C)(C)NC(=O)NCc1nnnn1C1CCCCC1	2	0
Cc1ccc2[nH]c(=O)c(CN3CCC4(CC3)CNC(=O)O4)cc2c1	2	2
CS(=O)(=O)c1ccc2nc(N(Cc3cccnc3)C(=O)c3ccc4c(c3)OCCO4)sc2c1	-10	-14
Clc1nc2cc3c(cc2nc1N1CCOCC1)OCCO3	-1	-3
CC(C)c1ccc(S(=O)(=O)N2CCN(C(c3ccc(F)cc3)c3ccc(F)cc3)CC2)cc1	29	17
O=C(COc1ccccc1Cl)NC1CCCN(CCc2ccccc2)C1 (stereo not drawn)	14	4
O=C(Nc1nnc(C2CC(=O)N(c3ccccc3)C2)o1)c1ccc2c(c1)OCO2 (stereo not drawn)	4	-2
Cc1cc(C(=O)N(C)CCN2CCOCC2)cc(C)c1OC(F)F	-7	-5
Cc1cc(Nc2cccc(CO)c2)nc(C)n1	4	3
COc1ccc(C)cc1N1CCN(C(C)=O)C(C)C1=O (stereo not drawn)	-10	-7
Cc1cccc(-c2nc(C)c(C(C)C)c(N3CCN(C(=O)CC(C)C)CC3)n2)c1	7	19
CCOC(=O)N1CCN(Cc2nc3c(c(=O)[nH]c(=O)n3C)n2CCCc2ccccc2)CC1	0	48
COCCCNC(=O)c1ccccc1N1CCC(NC(=O)c2cccc(F)c2)CC1	-2	5
Cc1cccc(C(=O)N2CCSC23CCN(S(=O)(=O)c2ccc(Cl)c([N+](=O)[O-])c2)CC3)c1	3	1
Cc1onc(-c2ccccc2Cl)c1C(=O)NCC12CC3CC(CC(C3)C1)C2	-16	-20
O=C(CN1CN(c2ccccc2)C2(CCN(C(=O)c3ccc(Cl)c(Cl)c3)CC2)C1=O)NCc1ccco1	20	16
C=CCC(CC(=O)O)C(=O)N1CCC2(CC1)CC(=O)c1ccc3ccccc3c1O2 (stereo not drawn)	-5	-11
CS(=O)(=O)N1CCSC1c1ccccc1Cl (stereo not drawn)	11	5
Cc1ccc(F)c(NC2CCCN(C(=O)Cc3ccccc3)C2)c1 (stereo not drawn)	0	5
C=CCN(C(=O)CCNC(=O)C(C)(C)C)c1nc(-c2ccccc2)cs1	9	7
Cc1ccccc1C1=NN2C(=N)/C(=C/c3ccccc3)C(=O)N=C2S1	-1	-1
COc1ccc(-c2cc(N)nc3[nH]ccc23)cc1C	-3	-7
Fc1ccc(-c2cc(C(F)(F)F)nc(-n3cc(Cl)cn3)n2)cc1	10	3
Cn1nnnc1SCC(=O)NCc1ccc(Cl)cc1Cl	-2	-3
Cc1cc(Cl)cc2sc(N(CCCn3ccnc3)C(=O)/C=C/c3cccs3)nc12	-8	-16
COc1cccc(Nc2nc(N)c([N+](=O)[O-])c(NCC3CCCO3)n2)c1 (stereo not drawn)	0	0
C=CCCC(O)CN(Cc1ccccc1)Cc1cccc(F)c1 (stereo not drawn)	24	25
Cc1ccc(C2=CN(c3ccc(Br)cc3)C3CCC[N+]23C)cc1 (stereo not drawn)	3&2	10&1
Cc1[nH]cnc1C(=O)N1CC(N2CCCCC2C)C1 (stereo not drawn)	1	4
O=c1c2cnc3nc(-c4ccncc4)nn3c2ccn1Cc1ccccn1	3	3
CCOC(=O)c1cnc2cc(C)ccn2c1=O	-2	6
CC(c1cccc(-c2nccnc2N(C)C)c1)N1CCCC1 (stereo not drawn)	3	1
CCCc1ccc(S(=O)(=O)N2CC(=O)N3CCc4cc(F)ccc4C3C2)cc1 (stereo not drawn)	28	13
O=C(Cc1ccc(Cl)cc1)N(Cc1ccccn1)c1nc2c(F)cccc2s1	7	12
CCSc1nc(N)c(NC(=O)c2ccc(OC)c(OC)c2)c(=O)[nH]1	3	1
Cc1nc(-c2ccc(Cl)cc2)nc(N2CCN(C(=O)NCc3ccccc3)CC2)c1Cc1ccccc1	-5	-3
Cc1nn(CC(=O)N2c3c(c(C)nn3C)N(C(=O)OC(C)(C)C)CC2C)c(C)c1Cl (stereo not drawn)	2	1
CCOC(=O)N1CCN(C(=S)NC(=O)c2cncc(Br)c2)CC1	5	3
CCCc1ncncc1C(=O)NCC1(O)CCNC1 (stereo not drawn)	2	-2
CN(C)Cc1ccccc1COc1ccccc1	3	1
N#Cc1cccc(CN2CCNC(=O)C2c2cccs2)c1 (stereo not drawn)	-4	-5
O=[N+]([O-])c1cccc(-c2ccc(SCc3ccccn3)nn2)c1	19	12
Cc1nn(Cc2ccccc2)c(C)c1CNC(=O)CCl	2	-2
COc1ccc(C23CC4CC(CC(C(=O)N(C)Cc5ccsc5)(C4)C2)C3)cc1	-4	-6
COCC(C)NC(=O)c1c(O)nc2cc(C)ccn2c1=O (stereo not drawn)	-2	4
COc1cccc(CC(C2CCN(C(=O)/C=C/c3ccccc3F)CC2)N(C)C(=O)CC(C)C)c1 (stereo not drawn)	24	11
Cc1ccc(Cl)cc1NC(=O)CNc1ccccc1F	-6	-6

Grouped by structure: the compounds so far with an aryl methoxy group (18)
SMILES	NPYLR7 agonist	NPYLR7 agonist max-min
COc1cc(C(=O)Nc2ccc3c(c2)N(C(=O)C2CC2)CCC3)cc(OC)c1OC	-5	-5
COc1ccc(-n2ccnc2CN2CCN(Cc3ccc(OC)c(C)c3)C(CCO)C2)cc1 (stereo not drawn)	12&10	4&9
COc1ccc(OC)c(C(=O)C=Cc2cc(Br)ccc2F)c1	1	2
CCOc1ncccc1-c1nccc(OC)n1	3	0
COc1ccc(CCC(=O)Nc2cccc(C(N)=O)c2C)c(OC)c1OC	-2	-5
COc1cc(OC)cc(C(=O)Nc2c(-c3cc(C)cc(C)c3)nc3ccccn23)c1	-4	1
COc1cccc(CC(=O)N2CCC(n3cnc4ccc(F)cc43)CC2)c1	-4	-6
COc1ccc(-c2nc3ccc(Cl)cn3c2NC2CCCCC2)cc1OC	8	12
COc1ccccc1OC(C)(C)C(=O)Nc1cnc2n1CCCC2	27	17
COc1cccc(C(CNS(=O)(=O)c2ccccc2Br)N(C)C)c1 (stereo not drawn)	-3	-3
COc1cccc(C(=O)N(CC(=O)N(Cc2ccccc2)Cc2cccn2Cc2ccc(F)cc2)C(C)C)c1	-8	3
COc1ccc(-n2nc(-c3ccc(C)o3)cc2C(=O)N2CCN(C/C=C/c3ccccc3)CC2)cc1	10	7
COc1ccc(C)cc1N1CCN(C(C)=O)C(C)C1=O (stereo not drawn)	-10	-7
COc1ccc(-c2cc(N)nc3[nH]ccc23)cc1C	-3	-7
COc1cccc(Nc2nc(N)c([N+](=O)[O-])c(NCC3CCCO3)n2)c1 (stereo not drawn)	0	0
CCSc1nc(N)c(NC(=O)c2ccc(OC)c(OC)c2)c(=O)[nH]1	3	1
COc1ccc(C23CC4CC(CC(C(=O)N(C)Cc5ccsc5)(C4)C2)C3)cc1	-4	-6
COc1cccc(CC(C2CCN(C(=O)/C=C/c3ccccc3F)CC2)N(C)C(=O)CC(C)C)c1 (stereo not drawn)	24	11
